Bioassay records: PubChem, Southern Research Specialized Biocontainment Screening Center
V. cholerae QS: Vibrio cholerae quorum sensing activators, luminescence (AID 686977); V. cholerae quorum sensing reporter, luminescence, 6 h; higher luminescence means a stronger effect; most inactives read 0; 9,400 tested, under 10 active; luminescence at 50 µM unless noted, or EC50 in µM where a hit was titrated;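 active = light above mean plus 3 SD and confirmed in a dose series; inconclusive = above that limit without a clear retest; inactive = below it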;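 also: raw light counts without normalisation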
Numbers without * were called inactive; ? = inconclusive; [ ] = remark or other dose. Only part of the results is shown. The share of hits here may be higher or lower than overall.

No. | SMILES | V. cholerae QS
1 | Cn1c(C(=O)NCCN2CCOCC2)cc2c(=O)n(C)c3ccccc3c21 | 40
2 | O=C(NC1CCCCC1)C1CCN(S(=O)(=O)c2cccs2)CC1 | 0
3 | COc1ccc(C[C@H](N)C(=O)N[C@H]2[C@@H](O)[C@H](n3cnc4c(N(C)C)ncnc43)O[C@@H]2CO)cc1 | ?
4 | COC(=O)CSc1ccc2nnc(-c3ccc(OC)c(OC)c3)n2n1 | 40
5 | Cc1c(CN(C)C)c2c(n1Cc1ccccc1)C(=O)c1ccc(Br)cc1-2 | 40
6 | O=C(CSc1nc(-c2ccc(F)cc2)cs1)NC(=O)NCc1ccco1 | 0
7 | C=CCN(C1CCCCC1)S(=O)(=O)c1ccc2c(c1)oc(=O)n2C | 0
8 | CCOC(=O)N1CCC(N2C(=O)c3ccccc3C2Nc2cc(C(=O)OC)cc(C(=O)OC)c2)CC1 (stereo unspecified) | 40
9 | Cc1cc(NC(=O)CS(=O)(=O)c2cn(C)c3ccccc23)no1 | 0
10 | CCOC(=O)C1CCCN(C(=S)Nc2cc(C)cc(C)c2)C1 (stereo unspecified) | 0
11 | NS(=O)(=O)c1cc(Cl)c(Cl)c(S(N)(=O)=O)c1 | 40[10 µg/mL]
12 | COc1cccc(/C=N/Nc2nc(Nc3ccccc3)nc(-n3nc(C)cc3C)n2)c1O | 0
13 | O=C(NCc1ccc2c(c1)OCO2)C1CCN(S(=O)(=O)c2cccs2)CC1 | 40
14 | CCn1c(=O)n(CC(=O)N(C)Cc2ccccc2)c(=O)c2ccccc21 | 0
15 | CCOC(=O)N1CCN(Cc2nc(N)nc(Nc3ccc(OC)cc3)n2)CC1 | 0
16 | CCCc1nnc(NC(=O)CCC(=O)O)s1 | 0
17 | CCOC(=O)C1CCN(S(=O)(=O)c2cccc(-c3cn4cccnc4n3)c2)CC1 | 40
18 | Brc1ccc2ncnc(NCc3ccccc3)c2c1 | 200
19 | Cn1c(=O)c2c(SCC(=O)N3CCOCC3)nc(C3CC3)nc2n(C)c1=O | 0
20 | O=c1c2cnn(-c3ccccc3Cl)c2ncn1Cc1cccnc1 | 0
21 | Cc1ccc(S(=O)(=O)c2cc3c(=O)n4ccccc4nc3n(Cc3ccco3)c2=N)cc1 | 320
22 | COc1ccc(NC(=S)NNC(=O)OC(C)(C)C)cc1OC | 40
23 | O=c1nc2s/c(=C\c3ccco3)c(=O)n2nc1Cc1ccccc1 | ?
24 | COc1ccc(Nc2nc(=O)[nH]nc2C)cc1 | 40
25 | CC(C)(C)c1nc2ccccc2c2nnc(SCC(=O)Nc3nccs3)n12 | 80

(next part)
No. | SMILES | V. cholerae QS
26 | Cc1cc(C)c(C#N)c(SCC(=O)N2CCN(Cc3ccccc3)CC2)n1 | 0
27 | CC1CCN(C(=O)CSc2nnc(-c3ccco3)o2)CC1 | 0
28 | Cc1ccc(S(=O)(=O)NNC(=S)Nc2ccccc2)cc1 | 40
29 | COc1ccccc1NS(=O)(=O)c1ccc(NC(=O)c2nc3nc(C)cc(C(F)F)n3n2)cc1 | 0
30 | COC(=O)c1ccccc1NC(=O)N1CSC[C@H]1C(=O)OC | 0
31 | CCCCN1C(=O)C2C(c3ccc(OC)cc3O)NC(CC(C)C)(C(=O)O)C2C1=O (stereo unspecified) | 40
32 | CCOC(=O)c1ccccc1NC(=O)CSc1nnc(COc2ccccc2C)n1C | 40
33 | CCn1cnc2cc(NS(=O)(=O)c3ccc(C)cc3)ccc21 | 0
34 | Cc1cc(C)n(CCc2nc(-c3cc4ccccc4o3)cs2)n1 | 0
35 | CN(C)c1nc(C(=O)Nc2ccccc2)nc(N(C)C)n1 | ?
36 | O=C1CCc2cc(S(=O)(=O)N3CCC(C(=O)NC4CCCc5ccccc54)CC3)ccc2N1 (stereo unspecified) | 0
37 | C=C(C)c1cccc(C(C)(C)NC(=O)N2CCN(c3ccccn3)CC2)c1 | 40
38 | CCOC(=S)N/C(=N\S(=O)(=O)c1ccccc1)c1ccccc1 | 0
39 | N#C/C(C(=O)N1CCOCC1)=C1/SC(Cc2ccccc2)C(=O)N1c1ccccc1 (stereo unspecified) | 40
40 | Cc1c(NC(=O)c2cnn3c(C(F)(F)F)cc(-c4ccco4)nc23)c(=O)n(-c2ccccc2)n1C | 40
41 | CC1CCCCN1CCNC(=O)c1cc2c(-c3ccccc3F)nn(C)c2s1 (stereo unspecified) | 0
42 | O=C(Cn1cc2c(n1)CCCC2)NCc1ccccn1 | 40
43 | CCCNC(=O)CS(=O)Cc1nc(-c2ccccc2C)oc1C (stereo unspecified) | 40
44 | O=C(NC1CCCC1)C1=COCCO1 | 0
45 | CCCCOc1ccc(OCCCN2CCOCC2)cc1 | 40[10 µg/mL]
46 | COc1ccc(CN2CCNCC2)c(OC)c1OC | 40[10 µg/mL]
47 | CS(=O)(=O)N(CC(=O)O)c1cccc(Cl)c1 | 0
48 | CC1CC2(CC(C)(C(=O)CSc3nc4ccccc4s3)OC2=O)C(=O)O1 (stereo unspecified) | 40
49 | O=C1C=C(c2ccccc2)C(=O)N1Nc1ccccc1 | 0
50 | Cc1noc(NS(=O)(=O)c2ccc(N)cc2)c1C | 0[10 µg/mL]

Carrying on.
No. | SMILES | V. cholerae QS
51 | CC(=O)c1cccc(NC(=O)CN(c2cccc(F)c2)S(C)(=O)=O)c1 | 0
52 | COc1ccc(OC)c(-c2nc(C(N)=O)c3[nH]c(=O)n(-c4ccc(F)cc4)c3n2)c1 | 0
53 | O=S(=O)(Nc1ccc(Oc2ncccn2)c(Cl)c1)c1ccc(F)cc1 | ?
54 | CCCCOc1cc(=O)[nH]c(=O)[nH]1 | 0
55 | CC1(C)CC(=O)c2sc(N3CCCCC3)nc2C1 | 40
56 | Clc1ccccc1CSc1nnc(Cn2cnc3ccccc32)n1-c1ccccc1 | 240
57 | COC(=O)Cn1c(CCC(=O)O)ccc1-c1ccccc1 | 80
58 | COc1ccc(C(=O)N2CCC(C(=O)O)CC2)cc1 | 0
59 | N#Cc1nc(-c2ccc(F)cc2)oc1NCc1ccccc1 | 0
60 | CS(=O)(=O)c1nc(-c2cccs2)cc(C(F)(F)F)n1 | 40
61 | Cc1ccccc1NC(=O)C1CCCN1S(=O)(=O)c1cccc2cccnc12 (stereo unspecified) | 40
62 | CN(C)[C@@H]1C(=O)C(C(N)=O)=C(O)[C@@]2(O)C(=O)C3=C(O)c4c(O)cccc4[C@@](C)(O)[C@H]3C[C@@H]12 | ?
63 | Cc1nn(-c2nc(-c3ccco3)cc(C(F)(F)F)n2)c(C)c1Br | 40
64 | COc1ccc(-c2cc(C(=O)NCc3ccco3)no2)cc1OC | 0
65 | COc1cccc(-c2nnc(SCC(=O)Nc3cc(C)on3)n2C)c1 | 40
66 | Cn1c(=O)c2c(SCC(=O)N3CCCc4ccccc43)nc(CC(C)(C)C)nc2n(C)c1=O | 0
67 | C=C1C[C@]23C[C@@]1(O)CC[C@H]2[C@@]12C=C[C@H](O)[C@@](C)(C(=O)O1)[C@H]2[C@@H]3C(=O)O | 0[10 µg/mL]
68 | COc1ccc(CC(C)(N)C(=O)O)cc1OC (stereo unspecified) | 0[10 µg/mL]
69 | Cc1ccc(C)c(Cn2nnc3c(=O)[nH]c(C4CCN(C(=O)c5cccs5)CC4)nc32)c1 | 0
70 | Cc1cccn2c(=O)c3cc(C(=O)NCc4ccco4)c(=N)n(C(C)C)c3nc12 | 0
71 | O=C(O)C1CC(=O)N(c2ccc(OCc3ccccc3)cc2)C1 (stereo unspecified) | 0
72 | CCCCCn1c(CCCNC(=O)CC)nc2ccccc21 | 0
73 | O=C(O)C1CC=CCC1C(=O)N1CCCC1 (stereo unspecified) | 0
74 | Cc1ccc(S(=O)(=O)N/N=C\C=C\c2ccccc2)cc1 | ?
75 | Cc1ccc(S(=O)(=O)/N=S(\C)CC2CC2(Cl)Cl)cc1 (stereo unspecified) | 0

Compounds 48–75, quoted:
No. | SMILES | V. cholerae QS
48 | CC1CC2(CC(C)(C(=O)CSc3nc4ccccc4s3)OC2=O)C(=O)O1 (stereo unspecified) | 40
49 | O=C1C=C(c2ccccc2)C(=O)N1Nc1ccccc1 | 0
50 | Cc1noc(NS(=O)(=O)c2ccc(N)cc2)c1C | 0[10 µg/mL]
51 | CC(=O)c1cccc(NC(=O)CN(c2cccc(F)c2)S(C)(=O)=O)c1 | 0
52 | COc1ccc(OC)c(-c2nc(C(N)=O)c3[nH]c(=O)n(-c4ccc(F)cc4)c3n2)c1 | 0
53 | O=S(=O)(Nc1ccc(Oc2ncccn2)c(Cl)c1)c1ccc(F)cc1 | ?
54 | CCCCOc1cc(=O)[nH]c(=O)[nH]1 | 0
55 | CC1(C)CC(=O)c2sc(N3CCCCC3)nc2C1 | 40
56 | Clc1ccccc1CSc1nnc(Cn2cnc3ccccc32)n1-c1ccccc1 | 240
57 | COC(=O)Cn1c(CCC(=O)O)ccc1-c1ccccc1 | 80
58 | COc1ccc(C(=O)N2CCC(C(=O)O)CC2)cc1 | 0
59 | N#Cc1nc(-c2ccc(F)cc2)oc1NCc1ccccc1 | 0
60 | CS(=O)(=O)c1nc(-c2cccs2)cc(C(F)(F)F)n1 | 40
61 | Cc1ccccc1NC(=O)C1CCCN1S(=O)(=O)c1cccc2cccnc12 (stereo unspecified) | 40
62 | CN(C)[C@@H]1C(=O)C(C(N)=O)=C(O)[C@@]2(O)C(=O)C3=C(O)c4c(O)cccc4[C@@](C)(O)[C@H]3C[C@@H]12 | ?
63 | Cc1nn(-c2nc(-c3ccco3)cc(C(F)(F)F)n2)c(C)c1Br | 40
64 | COc1ccc(-c2cc(C(=O)NCc3ccco3)no2)cc1OC | 0
65 | COc1cccc(-c2nnc(SCC(=O)Nc3cc(C)on3)n2C)c1 | 40
66 | Cn1c(=O)c2c(SCC(=O)N3CCCc4ccccc43)nc(CC(C)(C)C)nc2n(C)c1=O | 0
67 | C=C1C[C@]23C[C@@]1(O)CC[C@H]2[C@@]12C=C[C@H](O)[C@@](C)(C(=O)O1)[C@H]2[C@@H]3C(=O)O | 0[10 µg/mL]
68 | COc1ccc(CC(C)(N)C(=O)O)cc1OC (stereo unspecified) | 0[10 µg/mL]
69 | Cc1ccc(C)c(Cn2nnc3c(=O)[nH]c(C4CCN(C(=O)c5cccs5)CC4)nc32)c1 | 0
70 | Cc1cccn2c(=O)c3cc(C(=O)NCc4ccco4)c(=N)n(C(C)C)c3nc12 | 0
71 | O=C(O)C1CC(=O)N(c2ccc(OCc3ccccc3)cc2)C1 (stereo unspecified) | 0
72 | CCCCCn1c(CCCNC(=O)CC)nc2ccccc21 | 0
73 | O=C(O)C1CC=CCC1C(=O)N1CCCC1 (stereo unspecified) | 0
74 | Cc1ccc(S(=O)(=O)N/N=C\C=C\c2ccccc2)cc1 | ?
75 | Cc1ccc(S(=O)(=O)/N=S(\C)CC2CC2(Cl)Cl)cc1 (stereo unspecified) | 0

A different layout for three compounds above.
(66) Cn1c(=O)c2c(SCC(=O)N3CCCc4ccccc43)nc(CC(C)(C)C)nc2n(C)c1=O
- V. cholerae QS: 0

(67) C=C1C[C@]23C[C@@]1(O)CC[C@H]2[C@@]12C=C[C@H](O)[C@@](C)(C(=O)O1)[C@H]2[C@@H]3C(=O)O
- V. cholerae QS: 0[10 µg/mL]

(68) COc1ccc(CC(C)(N)C(=O)O)cc1OC (stereo unspecified)
- V. cholerae QS: 0[10 µg/mL]

New compounds follow:
No. | SMILES | V. cholerae QS
76 | CCOC(=O)C1=C(C)C(c2ccc(OC)cc2)NC(=S)N1 (stereo unspecified) | 40
77 | Cc1c(C(=O)N2CCc3ccccc3C2)sc2nc(-c3ccccc3)cn12 | 0
78 | COC(=O)c1ccc(COc2ccc(/C=C(\C#N)c3nc4ccccc4[nH]3)cc2OC)o1 | 0
79 | O=C(COC(=O)Cn1c(C(F)(F)F)nc2ccccc21)Nc1ccc2c(c1)OCCO2 | 0
80 | CS(=O)(=O)Nc1ccccc1C(=O)O | 0
81 | COc1ccc(S(=O)(=O)N2CCCC2C(=O)Nc2ccc(C(C)=O)cc2)cc1 (stereo unspecified) | ?
82 | C[N+]1(C)CCC[C@H]1C(=O)[O-] | 0[10 µg/mL]
